Source: PubChem (National Center for Advancing Translational Sciences (NCATS))
ClpP mod – qHTS Assay for Activators of ClpP. ATP-dependent Clp protease proteolytic subunit (Bacillus subtilis (strain 168)), P80244. purified B. subtilis ClpP, FRET peptide cleavage, 20 min. Potency, µM (doses to about 57.5 µM), inactives show top-dose activity change, negative = active. 1.9% of 340,000 active; active = well fitted falling curve with a large enough effect; inconclusive = small, poorly fitted or top-dose-only effect; inactive = no such curve, though single readings can be large or run the other way; further: potency means the concentration at half of the fitted maximal effect; the source files actives as falling curves though it sought activators and does not explain the sign; nearly all actives have a fitted effect of over 65% in size; many hits overshoot -100%
Target sequence (P80244 whole entry, looked up): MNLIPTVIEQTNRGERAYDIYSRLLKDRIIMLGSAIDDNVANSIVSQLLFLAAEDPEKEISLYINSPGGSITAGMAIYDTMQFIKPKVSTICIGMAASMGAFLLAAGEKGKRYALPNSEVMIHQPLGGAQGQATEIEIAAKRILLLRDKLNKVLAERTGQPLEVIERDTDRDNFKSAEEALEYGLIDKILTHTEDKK
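FRET quenching reversal measured ClpP activation: 10 microg/mL B. subtilis ClpP at pH 8 with the FRET-FV decapeptide, read at 430 nm after 320 nm excitation. The 20-min minus 0-min signal was scaled between DMSO/no-enzyme wells and ADEP (5.8 microM final).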
gsp antag – qHTS for Antagonists of gsp, the Etiologic Mutation Responsible for Fibrous Dysplasia/McCune-Albright Syndrome: qHTS. gsp-mutant cells, cAMP HTRF, 30 min; control for the full effect not named in the record. Potency, µM (series often up to 76.9 µM), for inactives: at the top dose activity change, negative = inhibition, actives largely listed as inhibitors. 0.4% of 340,000 active. AID 624288, 2012; active = falling curve of any shape with a large fitted effect; inconclusive = falling curve, mostly with a smaller effect; inactive = flat or rising curve; cell line not stated here;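 further: intracellular cAMP measured with PDE inhibitor Ro 20-1724 present during compound exposure; potency means the concentration at half of the fitted maximal effect; on the % scale 0 is the no-effect control and ±100 the full control effect; nearly all actives have a fitted effect of over 65% in size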
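HTRF cAMP measurement after 30 min RT detection following 30 min, 37C compound treatment alongside […] (added as 300 uM solution) in G418-selected cells seeded at 2000/well and grown 16–24 h.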
TRPML1 blocker – qHTS for Inhibitors of the Human Mucolipin Transient Receptor Potential 1 (TRPML1). Mucolipin-1 (Homo sapiens), Q9GZU1. TRPML1-inducible cells, Ca2+ dye fluorescence, FDSS; stronger effect = lower value; inhibition of EC80 agonist-evoked calcium signal. activity change, negative = inhibition, % (concentration not given with the values). 0.02% of 390,000 active. AID 624415, 2012; in the data active means activity change below about -50%; inconclusive means about -30% to -50%; inactive means above about -30%;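 further: stimulus is agonist 54-4 at its EC80 concentration; on the % scale 0 is the no-effect control and ±100 the full control effect; compound concentration not given in the record; the text of the record puts the active cut at -80%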
Target sequence (Q9GZU1 whole entry, looked up): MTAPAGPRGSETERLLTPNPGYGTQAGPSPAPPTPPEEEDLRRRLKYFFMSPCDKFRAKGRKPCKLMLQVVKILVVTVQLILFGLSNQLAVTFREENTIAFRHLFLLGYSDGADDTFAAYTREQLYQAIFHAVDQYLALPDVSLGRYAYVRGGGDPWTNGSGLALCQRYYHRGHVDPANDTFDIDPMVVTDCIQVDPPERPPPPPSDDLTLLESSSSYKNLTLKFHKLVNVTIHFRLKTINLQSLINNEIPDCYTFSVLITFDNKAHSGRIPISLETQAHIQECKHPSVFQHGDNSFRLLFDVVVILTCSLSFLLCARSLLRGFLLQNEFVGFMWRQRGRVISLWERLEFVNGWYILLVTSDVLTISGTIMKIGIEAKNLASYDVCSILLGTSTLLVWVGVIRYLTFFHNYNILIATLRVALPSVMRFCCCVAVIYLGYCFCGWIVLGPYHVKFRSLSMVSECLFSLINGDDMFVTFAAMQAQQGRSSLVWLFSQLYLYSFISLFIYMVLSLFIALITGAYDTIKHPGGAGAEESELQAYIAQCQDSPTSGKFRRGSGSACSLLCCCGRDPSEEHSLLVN
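TRPML1-DL cells, Tet-induced overnight (~16 h, 37 °C) at 1,500 cells/well, were loaded with Ca8 no-wash dye plus quencher for 45-90 min at room temperature. Compounds were pinned during FDSS kinetic reading; agonist 54-4 at EC80 (4 uM final) then added.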
TRPML1 ag – qHTS for Agonists of the Human Mucolipin Transient Receptor Potential 1 (TRPML1) | Mucolipin-1 (Homo sapiens), Q9GZU1 | TRPML1-expressing cells, Ca2+ dye fluorescence, FDSS; host cell line not named in the record; reference of the full effect not given here | activation, % (no concentration beside the values) | 0.12% of 410,000 active | AID 624414, 2012; in the data active = activation above about 50%; inconclusive = about 30% to 50%; inactive = below about 30%; further: 0% is about no effect; the text of the record puts the active cut at 80%
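Agonist activity was taken from a 110 s kinetic Ca2+ dye read on the FDSS after pinning compounds onto TRPML1-DL cells. The cells were seeded at 1,500/well with Tet inducer, incubated about 16 h, then dye-loaded at room temperature.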
gsp ag – qHTS for Agonist of gsp, the Etiologic Mutation Responsible for Fibrous Dysplasia/McCune-Albright Syndrome: qHTS. gsp mutant cells, cAMP HTRF, 30 min; control for the full effect not named in the record. 0.13% of 340,000 active. Potency, µM (top dose mostly 76.9 µM), without a hit: at the highest dose activation (cAMP increase), hits mostly activators. AID 624287, 2012; active = well fitted activation curve with a large enough effect; inconclusive = small, poorly fitted or top-dose-only effect, or another doubt; inactive = no such curve, though single readings can be large or run the other way; cell line not stated here;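 further: phosphodiesterase inhibitor Ro 20-1724 added with compounds to block cAMP breakdown; potency means the concentration at half of the fitted maximal effect; nearly all actives have a fitted effect of over 60% in size; about a fifth of the inactives were tested at one dose only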
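Cells stably selected in G418 were plated at 2000/well, grown 16-24 hr, then given compounds in DMSO with the PDE inhibitor […] (300 uM solution added) for 30 min at 37C; cAMP was read by HTRF.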
Menin MLL FP FL – qHTS Assay for Inhibitors Targeting the Menin-MLL Interaction in MLL Related Leukemias: Competition With Fluorescein Labeled MLL-derived Peptide | FP activity change, % at 61.4 µM | Fluorescence polarization, fluorescein-MLL peptide displacement from menin | 290,000 tested, under 10 active; inconclusive = falling polarisation curve, or a change in total fluorescence; inactive = total fluorescence flat and polarisation flat or rising; no compound was filed as active; the % refers to the polarisation; negative = inhibition;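 further: % of control where 0% means no effect; inhibitors lower the polarisation; unlabelled MLL peptide was the positive control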
The depositor's hits bear a star; & = joins results of further samples; [ ] = dose if it differs, or a comment.

`COc1cc(CCC(=O)Nc2ccncc2Cl)cc(OC)c1OC` gave ClpP mod -2.9%, gsp antag -2%, TRPML1 blocker 2, TRPML1 ag 0.3 and gsp ag -1%.
Screening CC(C)CC1Nc2ncnc(N3CCOCC3)c2N(Cc2ccccc2)C1=O (stereo unspecified) returned ClpP mod 3.7%&0.2%, gsp antag 3%, TRPML1 blocker -17&-7, TRPML1 ag 0.0&0.5 and gsp ag 16%.
Screening Cc1ccc2nc(NC(=O)[C@H](C)N3C(=O)C4CC=CCC4C3=O)sc2c1 (stereo partly specified) returned gsp antag -9%, TRPML1 blocker -1, TRPML1 ag 1.0, gsp ag -4%[15.4 µM] and Menin MLL FP FL 4.6.
For CCSC1=C(C#N)C(c2ccccc2Cl)C(C(=O)c2cccs2)C(O)(C(F)(F)F)N1 (stereo unspecified) the results were ClpP mod 0.2%, gsp antag inconclusive, TRPML1 blocker 8, TRPML1 ag 3.7, gsp ag -2% and Menin MLL FP FL inconclusive.
`Cc1cc(C)nc(NS(=O)(=O)c2ccc(NS(=O)(=O)c3ccsc3)cc2)n1` gave ClpP mod 0.3%, gsp antag -5%, TRPML1 blocker 2, TRPML1 ag 0.0, gsp ag -10% and Menin MLL FP FL 3.0.
For CC1Oc2ccccc2N(CC(=O)N2CCCCCC2)C1=O (stereo unspecified) the results were gsp antag 4%, TRPML1 blocker -16, TRPML1 ag 1.1, gsp ag -14% and Menin MLL FP FL -1.1.
Screening C[C@H](NS(=O)(=O)c1ccc(Cl)cc1)C(=O)OCC(=O)NCCc1ccc(S(N)(=O)=O)cc1 returned ClpP mod 0.8%, gsp antag 8%, TRPML1 blocker 24, TRPML1 ag 0.1 and gsp ag inconclusive.
For CCn1c(C)c(C)c2cc(C(=O)NCCCN3CCCCCC3)ccc21 the results were ClpP mod -22%, gsp antag 0%, TRPML1 blocker 9, TRPML1 ag -1.0 and gsp ag 14%.
Screening N#C/C(=C/c1cccc([N+](=O)[O-])c1)C(=O)Nc1ccccc1O returned ClpP mod -3.2%, gsp antag 2%, TRPML1 blocker -7, TRPML1 ag -0.4, gsp ag -43%[inhibitor] and Menin MLL FP FL 4.8.
`Cc1cc(NC(=O)Cn2cc([N+](=O)[O-])cn2)n(Cc2ccc(F)cc2)n1` gave ClpP mod -1.8%, gsp antag -11%, TRPML1 blocker -2, TRPML1 ag -1.2, gsp ag 19%[15.4 µM] and Menin MLL FP FL 0.3.
For CCOC(=O)/C=C/C(=O)Nc1cc(S(=O)(=O)Nc2ccc(OC)cc2)ccc1N1CCOCC1 the results were ClpP mod -7.8%, gsp antag 7%, TRPML1 blocker 5, TRPML1 ag -0.8 and gsp ag -32%[inhibitor].
Screening CC(=O)Nc1ccc(S(=O)(=O)NC(C)c2nc(-c3ccccc3)no2)cc1 (stereo unspecified) returned ClpP mod -1.2%, gsp antag 15%, TRPML1 blocker 6, TRPML1 ag -1.2, gsp ag -4%[15.4 µM] and Menin MLL FP FL -2.0.
For O=C(CCNS(=O)(=O)c1ccccc1F)N1CCN(C(c2ccccc2)c2ccccc2)CC1 the results were ClpP mod -1.0%, gsp antag -24%, TRPML1 blocker 25, TRPML1 ag 3.2 and gsp ag -7%.
c1csc(CN2CCN(Cc3cccs3)C2c2cccs2)c1 was read as ClpP mod -3.5%, gsp antag 5%, TRPML1 blocker 9, TRPML1 ag -0.3, gsp ag 26% and Menin MLL FP FL 5.8.
Screening CCCCOc1ccc(C(=O)OCC(=O)c2c(N)n(C)c(=O)n(C)c2=O)cc1 returned ClpP mod -1.8%, gsp antag -15%, TRPML1 blocker 1, TRPML1 ag 0.1 and gsp ag inconclusive.
Cc1ccc(OCc2nc(-c3ccccn3)no2)c(Br)c1 was read as ClpP mod -0.3%, gsp antag 0%, TRPML1 blocker 17, TRPML1 ag 1.1, gsp ag inconclusive and Menin MLL FP FL 1.5.
Screening c1ccc(-c2cc(N3CCOCC3)nc3ccccc23)cc1 returned ClpP mod 28µM*, gsp antag -13%, TRPML1 blocker 3, TRPML1 ag 0.8, gsp ag 15% and Menin MLL FP FL -0.6.
For CCOC(=O)C(=NCCCN1CCOCC1)NNc1cccc(C(F)(F)F)c1 the results were TRPML1 blocker -12, TRPML1 ag -0.1, gsp ag -18%[15.4 µM] and Menin MLL FP FL -2.6.
`COc1ccc(NC(=O)[C@@H](c2ccccc2)N2Cc3ccccc3C2=O)cc1OC` gave ClpP mod -3.1%, TRPML1 blocker 39 and TRPML1 ag 0.6.
For CCOC(=O)c1c(S(=O)(=O)N2CCC(C(=O)Nc3ccccc3OC)CC2)c(C)n(CC)c1C the results were ClpP mod 0.1%, TRPML1 blocker 2 and TRPML1 ag -1.4.

Part of the list above in order of SMILES length, falling:
For CCOC(=O)c1c(S(=O)(=O)N2CCC(C(=O)Nc3ccccc3OC)CC2)c(C)n(CC)c1C the results were ClpP mod 0.1%, TRPML1 blocker 2 and TRPML1 ag -1.4.
For O=C(CCNS(=O)(=O)c1ccccc1F)N1CCN(C(c2ccccc2)c2ccccc2)CC1 the results were ClpP mod -1.0%, gsp antag -24%, TRPML1 blocker 25, TRPML1 ag 3.2 and gsp ag -7%.
Cc1ccc(OCc2nc(-c3ccccn3)no2)c(Br)c1 was read as ClpP mod -0.3%, gsp antag 0%, TRPML1 blocker 17, TRPML1 ag 1.1, gsp ag inconclusive and Menin MLL FP FL 1.5.

Additional structures follow.
CCN(CC)S(=O)(=O)c1ccc(N2Cc3ccccc3C2=N)cc1 was read as ClpP mod -4.8%, gsp antag 1%, TRPML1 blocker -8, TRPML1 ag -0.5, gsp ag 3% and Menin MLL FP FL inconclusive.
CCCCCC(=O)N1C[C@H](n2cc(C3CC3)nn2)[C@@H](O)C[C@@H]1c1ccc(Cl)cc1 was read as ClpP mod -1.0%, TRPML1 blocker -12, TRPML1 ag 0.5 and gsp ag -63%[inhibitor].
Screening NC(=O)c1cc(-c2ccccc2)nc2ccc(Br)cc12 returned ClpP mod -1.2%, gsp antag 5%, TRPML1 blocker 8, TRPML1 ag 0.2, gsp ag inconclusive and Menin MLL FP FL -1.5.
For COc1ccc(Cl)cc1NC(=O)CN1CCC(n2nnc3cc(F)ccc32)CC1 the results were ClpP mod 1.0%, gsp antag -1%, TRPML1 blocker -6, TRPML1 ag 0.3, gsp ag 29% and Menin MLL FP FL 4.3.
Screening COc1cc2[nH]c(=O)n(Cc3ccc(C(=O)N4CCN(c5ccc(Cl)cc5)CC4)cc3)c(=O)c2cc1OC returned ClpP mod -6.7%, TRPML1 blocker -5 and TRPML1 ag -0.3.
`Cc1ccc(S(=O)(=O)N2CCN(C(=O)COC(=O)C3(C)CC3(Cl)Cl)CC2)c(C)c1` (stereo unspecified) gave ClpP mod 3.6%, gsp antag inconclusive, TRPML1 blocker 1, TRPML1 ag 0.9 and gsp ag -21%.
For CCCCCNC(=O)c1ccc2c(=O)n(CCCN3CCCC3=O)c(=S)[nH]c2c1 the results were ClpP mod -3.1%, gsp antag -6%, TRPML1 blocker 26, TRPML1 ag 0.8, gsp ag 4%[15.4 µM] and Menin MLL FP FL -0.3.
For O=C(O)CC(NS(=O)(=O)c1ccc(Br)s1)c1ccccc1 (stereo unspecified) the results were ClpP mod 0.4%, TRPML1 blocker 16 and TRPML1 ag 1.2.
C=C1CCN([C@@H](CC(C)C)C(=O)NCc2ccccc2)S(=O)(=O)c2ccccc21 was read as ClpP mod 0.1%, gsp antag -11%, TRPML1 blocker -7, TRPML1 ag 0.8 and gsp ag 10%.
CCCCCCC(CC(=O)NCc1cccnc1)CC(=O)NCc1cccnc1 was read as ClpP mod 0.9%, gsp antag 7%, TRPML1 blocker 2, TRPML1 ag 0.0, gsp ag 23% and Menin MLL FP FL -1.7.
For CC(C)OC(=O)c1cc2c(ccn2C)n1CC(=O)N(Cc1ccccc1)c1ccc(F)cc1 the results were ClpP mod 32µM*, gsp antag -19%, TRPML1 blocker 0, TRPML1 ag 0.4, gsp ag 0% and Menin MLL FP FL 1.3.
`Cc1ccc(-c2csc(NC(=O)Cn3[nH]c(=O)c4ccccc4c3=O)n2)cc1` gave gsp antag -6%, TRPML1 blocker 1, TRPML1 ag -0.1, gsp ag inconclusive and Menin MLL FP FL inconclusive.
For COC(=O)C1=C[C@@H](C(=O)OC)C2C3=C(C(=O)[C@@]2(C)NC(=O)c2ccccc2)[C@H](C)[C@@H]2C(=O)N(C)C(=O)[C@@H]2[C@@H]3C1 (stereo partly specified) the results were TRPML1 blocker 8, TRPML1 ag 0.4 and Menin MLL FP FL inconclusive.
For Cc1nnc(SCC2=C(C(=O)O)N3C(=O)C(NC(=O)c4cccc(F)c4F)C3SC2)s1 (stereo unspecified) the results were ClpP mod -2.1%, gsp antag 0%, TRPML1 blocker 19, TRPML1 ag -0.2, gsp ag 5% and Menin MLL FP FL 0.1.
`CCCOC(=O)C1C2C=CC3(CN(c4ccc(Cl)c(F)c4)C(=O)C13)O2` (stereo unspecified) gave ClpP mod 1.1%, gsp antag -1%, TRPML1 blocker 2, TRPML1 ag -0.2, gsp ag -4% and Menin MLL FP FL 4.4.
O=C(NCc1ccccc1)c1cc(C2CCCCN2S(=O)(=O)Cc2ccccc2)on1 (stereo unspecified) was read as ClpP mod 1.0%, TRPML1 blocker 38 and TRPML1 ag -0.4.
Screening OCc1ccc(OCCCOc2cccc3cccnc23)cc1 returned ClpP mod -12%, gsp antag -17%, TRPML1 blocker -6, TRPML1 ag 1.2, gsp ag -19% and Menin MLL FP FL 2.0.
`CCOc1ccc(S(=O)(=O)N(C)CC(=O)NCc2ccccn2)cc1` gave gsp antag 27%, TRPML1 blocker -9, TRPML1 ag -0.2, gsp ag -5%[15.4 µM] and Menin MLL FP FL 4.3.
Screening O=C(c1ccccc1)c1nccn1-c1ccc(Cl)nn1 returned ClpP mod -2.0%, gsp antag 13%, TRPML1 blocker 9, TRPML1 ag 0.5, gsp ag -51%[inhibitor] and Menin MLL FP FL -1.8.
Screening CCc1nc2ccc(C(=O)NCCc3ccc(OC)cc3OC)cc2nc1CC returned ClpP mod 32µM*, TRPML1 blocker -2 and TRPML1 ag 3.4.
